Compound activity deposited in PubChem by National Center for Advancing Translational Sciences (NCATS).
Cruzain inh Det: inhibitors of Trypanosoma cruzi cruzain with detergent; P25779; 200,000 tested, 0.43% active; purified cruzain, Z-FR-AMC fluorescence, 0.01% Triton; Potency, µM, for the others: max response, negative = inhibition, most hits filed as inhibitors;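 also: plate controls were neutral wells for no effect and buffer without enzyme for full effect; nearly all actives have a fitted effect of over 40% in size; top concentration of the series not given in the record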
Target sequence (P25779 123-467 limits assumed): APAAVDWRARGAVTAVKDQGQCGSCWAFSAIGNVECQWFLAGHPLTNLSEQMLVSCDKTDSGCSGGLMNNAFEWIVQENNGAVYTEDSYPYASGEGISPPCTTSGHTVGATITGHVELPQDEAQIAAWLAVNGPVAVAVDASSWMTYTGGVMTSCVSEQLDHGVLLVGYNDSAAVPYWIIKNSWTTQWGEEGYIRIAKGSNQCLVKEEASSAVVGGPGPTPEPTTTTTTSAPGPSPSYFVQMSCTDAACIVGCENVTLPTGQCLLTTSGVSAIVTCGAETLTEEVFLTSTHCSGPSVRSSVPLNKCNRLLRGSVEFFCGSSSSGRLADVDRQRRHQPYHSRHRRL
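Sodium acetate buffer (100 mM, pH 5.5) containing 5 mM DTT and 0.01% Triton X-100 hosted 1.5 nM cruzain and test compound for 15 min at room temperature. Cleavage of 2 uM Z-FR-AMC was then tracked by fluorescence.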
Cruzain inh noDet: inhibitors of Trypanosoma cruzi cruzain without detergent | AID 1476 | purified cruzain, Z-FR-AMC fluorescence, no detergent | 200,000 tested, 2.3% active | P25779 | Potency, µM, for inactives: max response, negative = inhibition, hits mostly inhibitors;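 also: plate controls were enzyme without inhibitor for no effect and buffer without enzyme for full effect; nearly all actives have a fitted effect of over 40% in size; top concentration of the series not given in the record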
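Detergent-free condition (0.00005% Triton X-100) in acetate buffer pH 5.5 with DTT. 1.5 nM enzyme and compound were pre-mixed 15 min, then 2 uM Z-FR-AMC substrate added; reaction progress from fluorescence change between first and third reads (60 s).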
2A StopGo: FMDV 2A StopGo reporter, luciferase signal | Potency, µM (titrated, usually from 57.9 µM), for the others: top-dose signal change, negative = less light | human cells with a luciferase reporter of 2A StopGo recoding; control for the full effect not named in the record | 410,000 tested, 1.2% active; active = well fitted falling curve with a large enough effect; inconclusive = small, poorly fitted or top-dose-only effect; inactive = no such curve, though single readings can be large or run the other way; tested in HEK293T cells; also: nearly all actives have a fitted effect of over 45% in size; luciferase light after 4 h
* hit, by the source's call; ? = inconclusive; · = not tested or not shown; [ ] = dose if it differs, or a comment. Unless noted, calls follow the shape of the dose curve; as a rule, active = well fitted curve in the direction sought with a large enough effect; inconclusive = small, poorly fitted or top-dose-only effect, or another doubt; inactive = no such curve, though single readings can be large; an effect the other way counts as inactive or inconclusive. Unless noted, % is scaled to controls: 0 for no effect and ±100 for the full control effect; potency is read from the fitted curve at half-maximal effect. Not all compounds are listed. The share of hits here may be higher or lower than overall.

SMILES | Cruzain inh Det | Cruzain inh noDet | 2A StopGo
O=C(NCCc1ccccn1)c1cnn(-c2ncc3c(n2)-c2ccccc2CC3)c1C1CC1 | · | · | -27%
Cc1oc(-c2ccccc2NC(=O)C2CCCO2)nc1CNC(=O)c1cc(F)c(F)cc1F (stereo not drawn) | · | · | -6%
Cc1cnc(SCc2ccccn2)nc1C1CCCN(C(=O)c2ccc(-c3ccccc3F)cc2)C1 (stereo not drawn) | · | · | ?
O=C(O)c1ccc(-c2noc(-c3ccccc3Cl)n2)cc1 | · | · | 0%
Cc1cnc(SCC2CCCO2)nc1C1CCCN(C(=O)C2=NNC(=O)CC2)C1 (stereo not drawn) | · | · | -4%
CCn1c(-c2ccccc2F)nc2cc(C(=O)N3CCNC(=O)C3CC(=O)OC)cc(NC(C)=O)c21 (stereo not drawn) | · | · | 2%
COc1ccc2c(c1)-c1nc(-n3ncc(C(=O)N(C)CC4CCCN(C)C4)c3C3CC3)ncc1CC2 (stereo not drawn) | · | · | 0%
O=C(c1cccc(F)c1F)N1CCOc2ccc(CN3CCN(Cc4ccccn4)CC3)cc2C1 | · | · | 10%
c1csc(CNc2nc(CN3CCCC(c4nc5ccccc5o4)C3)nc3ccccc23)c1 (stereo not drawn) | · | · | 8%
CCN1C(=O)CC(CC(=O)N2CCC(c3nc4ccc(F)cc4[nH]3)CC2)(c2ccccc2C)C1=O (stereo not drawn) | · | · | -11%
CCC1C(=O)NCCN1Cc1ccc2c(c1)CN(Cc1ccc3c(c1)OCCO3)CCO2 (stereo not drawn) | · | · | -3%
Cn1nccc1C(=O)NCC1CCC2(CCN(Cc3c(O)ccc4ccccc34)CC2)O1 (stereo not drawn) | · | · | 29%
Cc1ccc2nc(N3CCCCCC3)c(CN(CC3CCCO3)C(=O)c3cncs3)cc2c1 (stereo not drawn) | · | · | -12%
CCCCOc1ccc(Cl)cc1Nc1nc(NCCO)nc(N2CCCC2)n1 | · | · | -29%
Cc1c(CN2CCOc3c(O)cc(-c4nc5ccccc5s4)cc3C2)cnn1C | · | · | ?
CNCC/C=C/c1cccnc1 | · | · | 6%
COC(=O)[C@@H]1CCCN1C(=O)c1c(OC)cc(=O)n2c1CCN(Cc1ccc3nsnc3c1)CC2 | · | · | -4%
CCC1(C2CCN(Cc3c(C)[nH]c4ccccc34)CC2)NC(=O)N(Cc2ccc3c(c2)OCO3)C1=O (stereo not drawn) | · | · | -4%
Cc1cc(C(=O)Nc2ccccc2-c2nc(CNC(=O)c3ccccc3Cl)c(C)o2)c(C)o1 | · | · | 16%
Cc1cccc(CNC(=O)c2cnn(-c3nccc(-c4ccccc4F)n3)c2C2CC2)n1 | · | · | -10%
COc1ccc2c(c1)C(C)(CCN)C(=O)N2C (stereo not drawn) | · | · | 5%
Cc1c(C(=O)N2CCCC2)sc2ncnc(NCCN(C)C)c12 | · | · | -12%
CCC(Oc1ccc(Cl)cc1)C(=O)OC1CC2CCC(C1)N2C (stereo not drawn) | · | · | -14%
O=C(NCCO)c1cn(C2CCN(Cc3c(F)cccc3Cl)CC2)nn1 | · | · | -19%
NCCC(=O)c1ccccc1N | · | · | -2%

A few values from above:
For 2A StopGo, CCn1c(-c2ccccc2F)nc2cc(C(=O)N3CCNC(=O)C3CC(=O)OC)cc(NC(C)=O)c21 (stereo not drawn) has the entry 2%
For 2A StopGo, Cc1cccc(CNC(=O)c2cnn(-c3nccc(-c4ccccc4F)n3)c2C2CC2)n1 has the entry -10%
For 2A StopGo, CCC1C(=O)NCCN1Cc1ccc2c(c1)CN(Cc1ccc3c(c1)OCCO3)CCO2 (stereo not drawn) has the entry -3%
For 2A StopGo, Cc1c(C(=O)N2CCCC2)sc2ncnc(NCCN(C)C)c12 has the entry -12%
For 2A StopGo, Cc1cc(C(=O)Nc2ccccc2-c2nc(CNC(=O)c3ccccc3Cl)c(C)o2)c(C)o1 has the entry 16%
For 2A StopGo, O=C(O)c1ccc(-c2noc(-c3ccccc3Cl)n2)cc1 has the entry 0%
For 2A StopGo, CCC(Oc1ccc(Cl)cc1)C(=O)OC1CC2CCC(C1)N2C (stereo not drawn) has the entry -14%

Molecules shown so far that have sulfur:
SMILES | Cruzain inh Det | Cruzain inh noDet | 2A StopGo
Cc1cnc(SCc2ccccn2)nc1C1CCCN(C(=O)c2ccc(-c3ccccc3F)cc2)C1 (stereo not drawn) | · | · | ?
Cc1cnc(SCC2CCCO2)nc1C1CCCN(C(=O)C2=NNC(=O)CC2)C1 (stereo not drawn) | · | · | -4%
c1csc(CNc2nc(CN3CCCC(c4nc5ccccc5o4)C3)nc3ccccc23)c1 (stereo not drawn) | · | · | 8%
Cc1ccc2nc(N3CCCCCC3)c(CN(CC3CCCO3)C(=O)c3cncs3)cc2c1 (stereo not drawn) | · | · | -12%
Cc1c(CN2CCOc3c(O)cc(-c4nc5ccccc5s4)cc3C2)cnn1C | · | · | ?
COC(=O)[C@@H]1CCCN1C(=O)c1c(OC)cc(=O)n2c1CCN(Cc1ccc3nsnc3c1)CC2 | · | · | -4%
Cc1c(C(=O)N2CCCC2)sc2ncnc(NCCN(C)C)c12 | · | · | -12%

Later entries:
SMILES | Cruzain inh Det | Cruzain inh noDet | 2A StopGo
CC12CCC3C(CCC4CC(O)CCC43C)C1CC=C2c1ccccc1 (stereo not drawn) | · | · | -12%
CCN1C[C@]2(COC)CC[C@H](OC)[C@@]34C5C[C@@H]6[C@@H](OC)C[C@@]7(OCO[C@@]7([C@@H](O)C23)[C@@H]14)C5[C@H]6OC (stereo partly drawn) | · | · | -7%
Clc1ccc(-n2cccc2CN2CCOc3ccc(CN4CCOCC4)cc3C2)nc1 | · | · | -6%
CC(C)Cc1nc2cc(NS(=O)(=O)N(C)C)cc(C(=O)N3CCOCC3)c2n1C | · | · | 26%
CN(C)CC(C)(C)CNC(=O)c1cnn(-c2nccc(-c3ccc4c(c3)OCO4)n2)c1-c1ccco1 | · | · | -4%
COc1ccc(CCNC(=O)C(=O)c2c[nH]c3ccccc23)cc1 | · | · | 3%
CCN1CCCC1CNC(=O)c1cnn(-c2nccc(-c3ccc(C)o3)n2)c1C1CC1 (stereo not drawn) | · | · | -8%
Cc1cc(Nc2cc(Cl)nc(Sc3ccc(NC(=O)C4CC4)cc3)n2)n[nH]1 | · | · | ?
COCC(=O)Nc1cc(C(=O)N2CCN(c3ccccc3)C(=O)C2)cc2nc(-c3ccccc3)n(C)c12 | · | · | 0%
O=C(O)c1cc(NCc2cc(O)ccc2O)ccc1O | · | · | -6%
CN(C)c1nc2cc3c(cc2cc1CN(CC1CCCO1)C(=O)/C=C/c1cccs1)OCO3 (stereo not drawn) | · | · | -18%
CC(NC(=O)C1CC1)c1nnc2n1CCN(Cc1cccc(F)c1F)CC2 (stereo not drawn) | · | · | -1%
CC(=O)c1ccc(C(=O)N2CCCC(c3nc(SCc4ccccn4)ncc3C)C2)cc1 (stereo not drawn) | · | · | ?
COc1ccc(OC)c(-c2cc(Cl)c3c(c2)CC(CNC(=O)c2cnn4cccnc24)O3)c1 (stereo not drawn) | · | · | 32%[activator]
O=C1CCCCN1CCC(=O)N1CCOc2ccc(C(O)C3CCCCC3)cc2C1 (stereo not drawn) | · | · | -13%
Cc1cc(C(=O)NCc2nc(-c3cccc(NC(=O)c4ccccc4)c3)oc2C)nc(C)n1 | · | · | ?
Cc1ccc2[nH]nc(C(=O)N3CCOc4ccc(CN5CCc6sccc6C5)cc4C3)c2c1 | · | · | -21%
CCc1nc2cc(C(=O)N(C)C3CCOC3)cc(NC(=O)c3ccccc3OC)c2n1C (stereo not drawn) | · | · | 2%
COC(=O)C1CCCCN1Cc1ccc2c(c1)CN(C(=O)c1ccc(F)cc1)CCO2 (stereo not drawn) | · | · | -8%
O=C(NCCc1ccccn1)C1CC12CCN(C(=O)c1c(F)cccc1Cl)CC2 (stereo not drawn) | · | · | 5%
C[C@@H]1CN(Cc2ccc3c(c2)CN(Cc2cccn2-c2cccnc2)CCO3)C[C@H](C)O1 | · | · | -4%
Cc1cnc(SCc2ccccn2)nc1C1CCCN(Cc2ccsc2)C1 (stereo not drawn) | · | · | -17%
COc1cc(CN2CCCC(n3cc(C(=O)N4CCCCC4)nn3)C2)cc(OC)c1OC (stereo not drawn) | · | · | -9%
Cc1ncc2c(c1CNS(=O)(=O)N(C)C)CCN(C(=O)c1ccc(-c3ccc(F)cc3)cc1)C2 | · | · | -18%
O=C(NCCCCN1CCN(c2cccc(Cl)c2Cl)CC1)c1ccc2c(c1)Cc1ccccc1-2 | · | · | -12%

Next entries follow.
SMILES | Cruzain inh Det | Cruzain inh noDet | 2A StopGo
CCCCC/C=C\C\C=C/C=C/C=C/[C@@H](SC[C@H](N)C(=O)NCC(=O)O)[C@@H](O)CCCC(=O)O | · | · | -11%[0.463 µM]
CN1CCN(CC(=O)N2c3ccc(S(=O)(=O)NCCNC(=O)OC(C)(C)C)cc3C(=O)Nc3cccnc32)CC1 | · | · | -4%
CCn1c(-c2ccccc2F)nc2cc(NC(C)=O)cc(C(=O)N3CCCCC3c3nccn3C)c21 (stereo not drawn) | · | · | -1%
CCC1CN(CCNC(=O)c2ccnc(Cl)c2)Cc2cc(OC)ccc2O1 (stereo not drawn) | · | · | 66%[activator]
COc1cc(CN2CCCC(c3nc(-c4ccncc4)ncc3-c3ccccc3)C2)ccc1O (stereo not drawn) | · | · | -10%
Cc1occc1C(=O)Nc1cccc(-c2nc(CNC(=O)c3ccc4ccccc4n3)c(C)o2)c1 | · | · | -8%
COc1cc(=O)n2c(c1C(=O)NCc1ccco1)CCN(C(=O)c1ccccc1-c1ncc[nH]1)CC2 | · | · | 0%
Cc1cccc2cc(CN(C(=O)c3ccc(C(F)(F)F)cc3)C3CC3)c(N3CCC(O)CC3)nc12 | · | · | -11%
O=C(NCc1ccccn1)c1cnn(-c2nccc(-c3cc4ccccc4o3)n2)c1C1CC1 | · | · | -3%
COc1cccc(-c2nc3cc4c(cc3cc2CN(C(=O)c2csc(C)n2)C2CC2)CCC4)c1OC | · | · | 14µM*
Cc1cccc(CNC(=O)c2cnn(-c3nccc(-c4cccs4)n3)c2C2CC2)n1 | · | · | -8%
CN1CC(=O)NC1=N | · | · | 3%
c1coc(-c2ccccc2CN2CCOc3ccc(CN4CCOCC4)cc3C2)c1 | · | · | 0%
Cc1ccc(CN2C[C@H](Sc3ccccn3)C[C@H]2C(=O)Nc2ccc3sc(C)nc3c2)c(C)c1 | · | · | 6%
COc1cccc(CN2C(=O)[C@@H]3Cc4c([nH]c5ccccc45)C(C)(C)N3C2=O)c1 | · | · | ?
CCc1cc(C(=O)N2CCOc3ccc(CN4CCN(Cc5ccccn5)CC4)cc3C2)no1 | · | · | -14%
C[C@@H]1O[C@@H](OC[C@H]2O[C@@H](Oc3c(-c4ccc(OCCO)c(OCCO)c4)oc4cc(OCCO)cc(O)c4c3=O)[C@H](O)[C@@H](O)[C@@H]2O)[C@H](O)[C@H](O)[C@H]1O | · | · | -3%
COc1cc(=O)n2c(c1C(=O)N(C)Cc1nonc1C)CCN(CC1CC=CCC1)CC2 (stereo not drawn) | · | · | 5%
O=C1NC(O)(c2ccccc2)Oc2ccccc21 (stereo not drawn) | · | · | 12%
Cc1ccc2nc(SCC(=O)NCC3Cc4cc(-c5ncccc5C)ccc4O3)[nH]c2c1 (stereo not drawn) | · | · | -28%
CC(NC(=O)c1cc(F)ccc1F)c1nnc2n1CCN(Cc1cccs1)CC2 (stereo not drawn) | · | · | 1%
O[C@@H]1CCCN2C[C@@H](O)[C@@H](O)C12 (stereo partly drawn) | · | · | -15%[146 µM]
COc1cc(CN2CCC3(CCC(CNC(=O)c4ccco4)O3)CC2)ccc1O (stereo not drawn) | · | · | -11%
Cc1ncc2c(c1CNC(=O)/C=C/c1cccs1)CCN(C(=O)c1cc(C(C)C)on1)C2 | · | · | -9%
OCCN1CCN(Cc2ccc3c(c2)CN(Cc2cc4ccccc4o2)CCO3)CC1 | · | · | 4%
CCN1CCCC1CNC(=O)c1cnn(-c2nccc(-c3cc4ccccc4o3)n2)c1C (stereo not drawn) | · | · | 4%
N#Cc1cccc(-c2nc3cnc(N4CCOCC4)nc3n(C3CC3)c2=O)c1 | 3.9% | 7% | 0%
COc1ccc(-c2nc3cnc(Oc4cccc(Cl)c4)nc3n(CCC#N)c2=O)cc1 | 4.4% | 25% | 6%
CCCCC/C=C\C/C=C\C/C=C\C=C\[C@H](CCCC(=O)O)OO | 4.2% | -11% | -15%[0.463 µM]
COc1ccc(C2Oc3c(I)c(OC)cc(OC)c3CC2O)cc1OC (stereo not drawn) | -4.1% | 9% | 4%

Compound profiles, as listed above. Order of screens: Cruzain inh Det | Cruzain inh noDet | 2A StopGo
Cc1cnc(SCc2ccccn2)nc1C1CCCN(C(=O)c2ccc(-c3ccccc3F)cc2)C1 (stereo not drawn) is listed with · | · | ?
OCCN1CCN(Cc2ccc3c(c2)CN(Cc2cc4ccccc4o2)CCO3)CC1 is listed with · | · | 4%
